Compound activity deposited in PubChem by several laboratories.
BJeLR lethal: BJeLR cell viability loss | BJeLR (HRASV12) viability, CellTiter-Glo ATP luminescence, 48 h; reference of the scale not given here | inhibition, % (no concentration beside the values) | actives 0.17% (n = 300,000) | AID 1554;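 active = replicate mean above 50%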;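 also: 50 nL library stock added to about 25 µL; numbers are from one replicate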
ugtP null kill: kills S. aureus RN4220 lacking UgtP; S. aureus RN4220 ugtP deletion, OD600 growth, 16 h; some inactives read as strong as hits; actives 0.54% (n = 330,000); growth inhibition, % (no concentration beside the values); AID 1259309;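 active = z-score under -3 and OD600 up to 0.15 on both plates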;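 also: plate controls were untreated wells for no effect and antibiotic for full effect; wells of about 80 µL received 100 nL stock; the first replicate is given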
Bead autofluor: compound fluorescence in toxin protease inhibitor counterscreen | AID 624483 | compound autofluorescence counterscreen, microsphere flow cytometry; active compounds read high | actives 3.1% (n = 360,000) | fluorescence intensity (test concentration not listed);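 active = at least 3 SD above the mean of all compounds, about 16000 in these data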;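 also: 100 nL of 1 mM stock went into each well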
PrP UTR inh: inhibition of PrP 5' UTR reporter expression | cell-based PrP 5' UTR mRNA reporter, plate reader | inhibition, % (concentration not given with the values) | actives 0.35% (n = 340,000) | AID 488862;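 active = every replicate at 50% or more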;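 also: 0 = median of the neutral control wells; tested in H4 reporter cells; numbers are from one replicate; inactives centre near -14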
Sa RN4220 lethal: S. aureus RN4220 growth inhibition | actives 0.33% (n = 330,000) | inhibition, % (concentration not given with the values) | OD600, 16 h;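 active = z-score of -3 or lower and OD600 up to 0.18 on both plates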;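 also: plate controls were untreated cells for no effect and reference antibiotic for full effect; stock transfer was 100 nL into about 80 µL; one replicate is shown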
Mtb hypoxia inh: inhibitors of hypoxia-regulated fluorescent reporter in Mycobacterium tuberculosis | M. tuberculosis hypoxia-regulated fluorescent reporter, fluorescence | fluorescence inhibition, % (concentration not given with the values) | actives 0.1% (n = 300,000);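 active = 35 to 45% if threefold the growth effect, above 45% if 1.5-fold the growth effect; inactive = the rest, general growth blockers included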;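 also: wells of about 50 µL received 100 nL stock; 0% = vehicle wells and 100% = reference inhibitor wells; whole bacteria with a GFP reporter of the hypoxia response; strong numbers were not always called active; many hits fall short of the cut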
Mtb hypoxia inh growth: further read-out of Mtb hypoxia inh, marked with its call; growth inhibition, %; measured here: M. tuberculosis growth (absorbance);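 0% = vehicle and 100% = reference antibiotic; read after six days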
Numbers without * were called inactive; / = no result given.

Start of the data: the first 9 entries (preview)
cpd	SMILES	BJeLR lethal	ugtP null kill	Bead autofluor	PrP UTR inh	Sa RN4220 lethal	Mtb hypoxia inh	Mtb hypoxia inh growth
1	COc1ccc(NC(=O)C2CCCN(S(=O)(=O)c3cccc4cccnc34)C2)cc1OC (stereo unspecified)	-7.6	7.4	6005	-9.5	-0.3	/	/
2	CCOCCCNC(=O)CCCC1=NS(=O)(=O)c2ccccc2N1	13.3	8.9	7943	-3.4	1.6	13.5	7.4
3	COc1ccc(N(C(=O)COc2ccccc2)C2C=CS(=O)(=O)C2)c(OC)c1 (stereo unspecified)	13.0	10.6	8391	-22.4	5.2	11.9	-0.1
4	C(=C\c1ccccn1)/c1ccccn1	-1.0	13.0	3970	-33.1	6.0	3.7	-6.3
5	C=C(C)C(=O)Oc1ccc(N=Nc2ccc(C)cc2)ccc1=O	/	99.7*	3188	/	0.4	8.0	-10.0
6	CCCOc1ccc(/C=C2/C(=O)ON=C2C)cc1Cl	8.7	20.5	3661	-14.5	7.4	2.3	9.0
7	COc1cc(S(=O)(=O)NCc2ccc3c(c2)OCO3)ccc1F	0.1	-3.1	5453	-14.5	3.5	12.0	12.6
8	CC(=O)c1ccc(Oc2cnccn2)cc1	1.0	0.8	2167	-18.3	4.3	16.1	8.8
9	Cn1c(SCc2cc([N+](=O)[O-])cc3c2OCOC3)nnc1-c1ccccn1	0.2	-2.2	2550	-20.9	7.1	-9.5	7.8

The list itself (from the top)
cpd	SMILES	BJeLR lethal	ugtP null kill	Bead autofluor	PrP UTR inh	Sa RN4220 lethal	Mtb hypoxia inh	Mtb hypoxia inh growth
1	COc1ccc(NC(=O)C2CCCN(S(=O)(=O)c3cccc4cccnc34)C2)cc1OC (stereo unspecified)	-7.6	7.4	6005	-9.5	-0.3	/	/
2	CCOCCCNC(=O)CCCC1=NS(=O)(=O)c2ccccc2N1	13.3	8.9	7943	-3.4	1.6	13.5	7.4
3	COc1ccc(N(C(=O)COc2ccccc2)C2C=CS(=O)(=O)C2)c(OC)c1 (stereo unspecified)	13.0	10.6	8391	-22.4	5.2	11.9	-0.1
4	C(=C\c1ccccn1)/c1ccccn1	-1.0	13.0	3970	-33.1	6.0	3.7	-6.3
5	C=C(C)C(=O)Oc1ccc(N=Nc2ccc(C)cc2)ccc1=O	/	99.7*	3188	/	0.4	8.0	-10.0
6	CCCOc1ccc(/C=C2/C(=O)ON=C2C)cc1Cl	8.7	20.5	3661	-14.5	7.4	2.3	9.0
7	COc1cc(S(=O)(=O)NCc2ccc3c(c2)OCO3)ccc1F	0.1	-3.1	5453	-14.5	3.5	12.0	12.6
8	CC(=O)c1ccc(Oc2cnccn2)cc1	1.0	0.8	2167	-18.3	4.3	16.1	8.8
9	Cn1c(SCc2cc([N+](=O)[O-])cc3c2OCOC3)nnc1-c1ccccn1	0.2	-2.2	2550	-20.9	7.1	-9.5	7.8
10	O=C(O)[C@H]1CCCC[C@H]1C(=O)NCCc1ccccc1	11.2	4.9	11033	-6.8	3.2	10.2	12.6

cpd	SMILES	BJeLR lethal	ugtP null kill	Bead autofluor	PrP UTR inh	Sa RN4220 lethal	Mtb hypoxia inh	Mtb hypoxia inh growth
11	CCCN(C(=O)c1cc2c(s1)CCC2)c1c(N)n(Cc2ccccc2)c(=O)[nH]c1=O	7.9	8.3	4815	-20.7	-0.2	4.6	-9.6
12	O=C1CN(S(=O)(=O)c2ccc(Cl)cc2)CC(=O)N1CCc1ccccc1	-16.7	-2.6	9874	-28.5	2.5	-17.6	-7.6
13	CC(CC(=O)Nc1ccccc1)n1ccnc1 (stereo unspecified)	2.9	10.9	4550	-7.3	2.6	3.8	10.7
14	Cc1ccccc1Oc1ncnc(N)c1[N+](=O)[O-]	-17.9	6.1	3296	-9.3	9.6	-7.3	4.6
15	CCOc1cc(CNCCc2ccc(S(N)(=O)=O)cc2)ccc1OCc1ccc(Cl)cc1	6.4	-4.0	2431	-16.9	-13.8	/	/
16	CC1CCCCN1CCCNC(=O)c1ccc(Br)cc1 (stereo unspecified)	-9.0	5.5	8190	-8.3	4.7	4.3	-4.2
17	O=C(CN1CCN(c2ccc(F)cc2)CC1)NC(=O)NCc1ccco1	1.1	9.3	4329	0.4	4.9	16.4	3.7
18	Nc1ccc(N(c2ccccc2)c2ccc(N)cc2)cc1	-5.8	-1.3	2485	-20.2	1.1	-104.3	-37.1
19	O=C(NC(=O)c1ccncc1)NC(c1ccccc1)c1ccccc1	0.3	4.6	5799	-23.7	2.2	12.0	9.8
20	CC(=O)c1ccc(NC(=O)CSc2nc(C)cc(C)c2C(N)=O)cc1	5.4	-2.8	5125	-3.6	3.0	0.7	7.7

cpd	SMILES	BJeLR lethal	ugtP null kill	Bead autofluor	PrP UTR inh	Sa RN4220 lethal	Mtb hypoxia inh	Mtb hypoxia inh growth
21	C[C@H](NC(=O)C1(c2ccccc2)CCN(C(=O)[C@H]2CSCN2C(=O)OC(C)(C)C)CC1)C(=O)O	0.8	9.2	4503	0.5	-1.9	2.3	-4.5
22	COc1ccc(-c2cc(C(=O)Nc3ccc(Br)cc3)no2)cc1	10.5	17.5	3684	-19.9	2.0	13.7	10.9
23	CCOC(=O)c1c(NC(C)=O)sc2c1CCCNC2=O	15.5	7.6	3473	-4.8	7.4	/	/
24	O=C(CCc1ccccc1)Nc1ccc(S(=O)(=O)N2CCCC2)cc1	-3.2	0.1	4247	-12.9	1.1	9.5	7.7
25	O=S(=O)(CC(CN1CCCC1)N1CCCC1)c1ccc2ccccc2c1 (stereo unspecified)	12.9	-6.8	26003*	-3.9	9.3	10.5	19.5
26	CCN(CC)c1ccc(S(=O)(=O)N2CCOCC2)cc1NC(=O)CSc1nncs1	3.3	-5.9	5649	-10.6	0.1	1.5	2.9
27	O=C(NCC1CC1)c1onc(CSc2ccc(F)cc2)c1C(=O)NCC1CC1	4.8	6.5	4070	-26.6	5.7	5.7	5.8
28	COc1cc(Br)cc(CN2CCN(C)CC2)c1O	0.9	1.0	22111*	-5.9	2.7	9.1	-4.9
29	COc1ccc(-c2ccccc2NC(=O)C2CCCN(Cc3ccc(C)o3)C2)cc1 (stereo unspecified)	-2.9	-5.7	4235	10.6	-0.9	-4.1	0.9
30	CCC1(C)CC(C(N)=S)CCO1 (stereo unspecified)	1.1	3.2	3941	-14.9	5.6	-22.8	-41.6

cpd	SMILES	BJeLR lethal	ugtP null kill	Bead autofluor	PrP UTR inh	Sa RN4220 lethal	Mtb hypoxia inh	Mtb hypoxia inh growth
31	Cc1ccc(-n2c(C)cc(C(=O)Cn3nc(C(=O)O)c4ccccc4c3=O)c2C)cc1	1.2	2.3	2028	-3.9	-5.0	-11.0	8.6
32	COc1ccc(S(=O)(=O)N(C)CC(=O)N2CCN(c3ccccc3)CC2)cc1	5.9	12.7	5467	-15.8	0.3	0.0	2.4
33	COc1ccc(-c2cc(-c3ccc(Cl)cc3)n[nH]2)c(O)c1	3.7	25.4	3789	-57.3	-14.1	12.7	7.0
34	CCOC(=O)Cc1csc(NC(=O)CCCCCN2C(=O)c3cccc4cccc(c34)C2=O)n1	2.3	-2.0	4818	-20.4	2.0	-0.7	4.2
35	COCC1COS(=O)(=O)NC1(C)C (stereo unspecified)	-11.6	-5.9	4193	-24.1	3.4	3.2	1.8
36	CCNC(=O)CC1C(=O)N(c2ccc(C)cc2)C(=O)N1CCc1sccc1C (stereo unspecified)	1.4	1.6	4881	-28.9	3.8	7.9	1.5
37	CCOC(CCNC(=O)c1cn(CC(C)C)c(=O)c2c1c1ccccc1n2C)OCC	3.9	2.9	3734	-11.4	1.1	-1.5	2.3
38	C=CCN(C(=O)CNC(=O)c1ccco1)C(C(=O)NC1CCCCC1)c1ccc(OC)cc1OC (stereo unspecified)	-5.5	12.6	4831	-33.0	-4.4	/	/
39	CCC(Sc1nc2ccccc2c2nc3ccccc3n12)C(=O)NCc1ccco1 (stereo unspecified)	0.3	-3.5	/	/	1.6	-6.1	5.6
40	O=C(c1ccc(Cn2c(=O)[nH]c3ccsc3c2=O)cc1)N1CCN(c2ccccc2)CC1	-14.3	4.5	3473	-24.0	1.5	2.9	-10.2

cpd	SMILES	BJeLR lethal	ugtP null kill	Bead autofluor	PrP UTR inh	Sa RN4220 lethal	Mtb hypoxia inh	Mtb hypoxia inh growth
41	C=CCn1c(SCC(=O)Nc2ccc3c(c2)CCC3)nc2ccccc2c1=O	-10.8	-6.0	2164	-14.4	0.9	6.9	-18.1
42	O=[N+]([O-])c1cccc2c3c([nH]c12)CCCC3	-2.5	-3.6	4114	-40.2	6.4	-9.1	-2.6
43	COC(=O)CSc1nc2ccccc2n1CC(=O)N(C(C)C)C(C)C	-2.0	-2.7	11473	-19.4	3.7	7.3	0.8
44	N#CC(C(=O)Nc1ccccc1)=C1Nc2ccccc2N1	-10.3	-15.1	9418	-22.8	20.2	-3.7	0.5
45	CCCCn1c(N)c(N(CC(C)C)C(=O)c2cnc(C)cn2)c(=O)[nH]c1=O	3.6	15.1	6436	-37.8	1.8	5.1	-9.3
46	COc1cc(/C=C2\SC(=S)N(CCC(=O)N3CCN(C)CC3)C2=O)cc(OC)c1OC	5.7	8.6	3721	-27.3	3.8	1.0	7.6
47	COc1ccc(-c2ccccc2)cc1NC(=O)c1cccs1	6.3	18.3	3720	-13.9	-2.2	14.3	8.0
48	CC(NC(=O)c1nc[nH]c1C(=O)NCC(=O)OC(C)(C)C)C(=O)OCc1ccccc1 (stereo unspecified)	/	-0.7	/	/	-0.3	4.1	5.9
49	CC(CC(=O)N1CCN(c2ccccc2F)CC1)c1ccccc1 (stereo unspecified)	1.4	1.5	2025	-19.7	2.1	4.7	3.0
50	CC1=C2C3OC(=O)C(C)[C@@H]3CC[C@](C)(O)C2C2C3C4C5(C12)[C@H]1OC(=O)[C@@H](C)C1CC[C@]4(C)O[C@]5(C)[C@@H]3O (stereo partly specified)	15.4	7.1	2600	-8.3	2.1	12.1	11.5

cpd	SMILES	BJeLR lethal	ugtP null kill	Bead autofluor	PrP UTR inh	Sa RN4220 lethal	Mtb hypoxia inh	Mtb hypoxia inh growth
51	COc1ccccc1CCNC(=O)C(C)n1nc(C)c2c(C)n(-c3ccccc3)nc2c1=O (stereo unspecified)	-17.4	13.2	5431	-25.5	1.6	4.8	-1.3
52	COc1ccc(CNC(=O)Nc2ccccc2)cc1	3.3	-5.5	4598	-53.3	4.1	-1.3	19.1
53	Cc1ccc(C2SCC(=O)N2c2ccccc2)cc1 (stereo unspecified)	0.8	10.5	3539	-11.8	-1.7	15.0	7.0
54	CN(C)c1ccc(C=Nc2ccccc2)cc1	11.7	9.4	8933	-18.9	7.8	-2.2	-3.3
55	CCN(CC)S(=O)(=O)c1ccc(F)c(C(=O)NCCCN2CCOCC2)c1	3.1	-2.5	11694	-16.5	-0.6	0.0	5.0
56	CC(=O)c1ccc(NC=CC(=O)c2ccc(C)cc2)cc1	/	-1.7	/	/	5.4	-1.4	-0.6
57	CC(=O)Nc1ccc(S(=O)(=O)NCc2ccc(C(=O)NCCN3CCCCCC3)cc2)cc1	-2.0	11.5	5310	-18.7	4.8	12.2	5.1
58	NC(=O)CSc1nnc(-c2ccccc2F)n1C1CC1	6.7	10.3	3563	-3.1	0.1	-3.9	-2.8
59	CC(=NNc1nc(C)cc(=O)[nH]1)C1CC1	/	-0.9	/	/	0.4	-0.6	0.1
60	O=C(CSCc1ccccc1)Nc1ccc(Cl)cn1	4.2	11.8	4110	-34.8	2.5	13.2	11.4

cpd	SMILES	BJeLR lethal	ugtP null kill	Bead autofluor	PrP UTR inh	Sa RN4220 lethal	Mtb hypoxia inh	Mtb hypoxia inh growth
61	CCCc1cc(=O)[nH]c2nnc(SCC(=O)NC3CCCC3)n12	3.1	0.1	5224	-7.4	4.5	4.4	8.3
62	CCOC(=O)C(=NNc1ccccc1[N+](=O)[O-])c1csc(N)n1	/	5.2	/	/	2.9	16.6	9.4
63	COc1cc(C)c(Cl)cc1S(=O)(=O)NCc1ccccn1	-8.9	/	3433	-16.2	/	/	/
64	CC(C)N1CCN(c2ccc(OCC3CO[C@](Cn4cncn4)(c4ccc(Cl)cc4Cl)O3)cc2)CC1 (stereo partly specified)	/	12.4	/	/	1.0	19.6	15.6
65	COc1ccc(NC(=O)C2CCN(C(=O)[C@@H]3Cc4ccccc4CN3)CC2)cc1	3.7	2.8	5706	-19.9	0.5	5.8	1.0
66	O=C(c1ccc2c(=O)n(CCc3ccccc3)c(=O)[nH]c2c1)N1CCN(c2ccc(F)cc2)CC1	14.2	5.8	5519	-2.2	3.2	2.6	-8.3
67	CC(C)(C)n1nnnc1C(c1ccccc1F)N(Cc1ccco1)CC1CCCO1 (stereo unspecified)	-0.4	0.4	9311	-64.2	5.6	9.9	3.3
